# Screening results deposited in PubChem by National Center for Advancing Translational Sciences (NCATS).
# PINK1 modulator: A Quantitative High throughput Screen to Identify Chemical Modulators of PINK1 Expression | PINK1 immunofluorescence, high-content cytometry, 24 h | Potency, µM (doses to about 76.6 µM), inactives show at the highest dose activation (PINK1 increase), most hits filed as activators | 410,000 tested, 0.2% active; active = well fitted activation curve with a large enough effect; inconclusive = small, poorly fitted or top-dose-only effect; inactive = flat fitted curve, though single readings scatter; cell line not stated here;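 also: potency is read from the fitted curve at half-maximal effect; % of control where 0% means no effect; nearly all actives have a fitted effect of over 65% in size; a mitochondrial uncoupler was the plate control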
#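 Cells are seeded, rested 12 hours, then given compound at five concentrations or DMSO for 24 hours. After fixation, blocking and antibody staining, PINK1 amount and mitochondrial localization are scored; CCCP serves as control.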
# Six1-Eya2 inh: qHTS Assay for Inhibitors of the Six1/Eya2 Interaction; AID 651725, 2012; AlphaScreen GST-Six1/His-Eya2 binding, biochemical; hits give low values; control for the full effect not named in the record; 360,000 tested, 0.56% active; Homeobox protein SIX1 (Homo sapiens) + Protein phosphatase EYA2 (Homo sapiens), …; activity change, % (concentration not given with the values); in the data active = activity change below about -65%; inconclusive = about -30% to -65%; inactive = above about -30%; also: % is scaled to controls: 0 for no effect and ±100 for the full control effect
#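 Six1/Eya2 binding was read as AlphaScreen signal after compounds were pinned into GST-Six1 plus His-tagged Eya2 (5X stock 250/500 nM) in pH 8.0 Tris/NaCl/TCEP buffer, beads added, then incubated 1 h, 37 C, dark.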
# D2 PAM: Beta-Arrestin HTS for Positive Allosteric Modulators of the Human D2 Dopamine Receptor: Potentiators; D(2) dopamine receptor (Homo sapiens), P14416; DiscoveRx D2 beta-arrestin cells, luminescence, 90 min; 100% = 57 uM dopamine signal; AID 624464, 2012; potentiation, % (concentration not given with the values); 360,000 tested, 0.23% active; active = potentiation of 50% or more; inconclusive = 30% to 50%; inactive = 30% or less;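 also: compound concentration not given in the record; tested on top of an EC20 dose of dopamine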
#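 PathHunter D2 cells, attached overnight at 37 deg C, received compound in DMSO plus dopamine at EC20 (50 nM final) for 90 min at 37 deg C. Beta-arrestin recruitment was read as luminescence after 1 h with detection reagent at ambient temperature.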
# D2 agonist: Beta-Arrestin HTS for Positive Allosteric Modulators of the Human D2 Dopamine Receptor: Agonists | D(2) dopamine receptor (Homo sapiens), P14416 | DiscoveRx PathHunter D2 beta-arrestin, luminescence, 90 min; 100% = 57 uM dopamine signal | activation, % (no concentration beside the values) | 360,000 tested, 0.084% active; in the data active = activation above about 40%; inconclusive = about 15% to 40%; inactive = below about 15%; also: compound concentration not given in the record; the text of the record calls up to 30% inactive
#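 DiscoveRx PathHunter D2 beta-arrestin cells (2,100/well) attached overnight, then compound-stimulated 90 min at 37 C in HBSS/10 mM HEPES/0.1% Tween-20 buffer; beta-galactosidase complementation read by luminescence after 1 h at ambient temperature. Dopamine 57 uM final (EC100) as control.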
# CtBP-E1A inh: qHTS Assay for Inhibitors of the CtBP/E1A Interaction; CtBP / adenovirus E1A interaction (AlphaScreen); AlphaScreen GST-E1A/His-CtBP binding, 1536-well; hits give low values; control for the full effect not named in the record; activity change, % (no concentration beside the values); 340,000 tested, 0.49% active; AID 651724, 2012; in the data active means activity change below about -65%; inconclusive means about -30% to -65%; inactive means above about -30%; also: % is scaled to controls: 0 for no effect and ±100 for the full control effect; compound concentration not given in the record
#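 AlphaScreen with 125 nM GST-E1A and 125 nM His-CtBP (5X stocks) in Tris pH 8.0, 300 mM NaCl, BSA, Tween 20, TCEP. Compounds preincubated 2 h at 37 deg C, then glutathione donor/nickel acceptor beads added for 1 h at 37 deg C in dark.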
# Sfp PPTase inh: qHTS Assay for Inhibitors of Bacillus subtilis Sfp phosphopantetheinyl transferase (PPTase); Biochemical Sfp PPTase activity, qHTS; Potency, µM, for inactives: max response, negative = inhibition, usual class: inhibitors; 310,000 tested, 3.5% active; active = well fitted inhibition curve with a large enough effect; inconclusive = small, poorly fitted or top-dose-only effect, or another doubt; inactive = no such curve, though single readings can be large or run the other way;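 also: the enzyme is Sfp with the accession as filed and its product quenches rhodamine fluorescence; potency is read from the fitted curve at half-maximal effect; 0% = enzyme reaction without inhibitor and -100% = no enzyme wells; top concentration of the series not given in the record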
#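 With Hepes-Na pH 7.6 buffer containing 10 mM MgCl2, Sfp (15 nM) modified BHQ-2-YbbR (12.5 uM) using rhodamine-CoA (5 uM). Two reads 30 minutes apart at 525/598 nm yielded each well's rate.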
# TRPV1 PAM: HTS Assay for Compounds that Act as Potentiators of the Vanilloid Receptor 1. Transient receptor potential cation channel subfamily V member 1 (Homo sapiens), Q8NER1. TRPV1-expressing cells, Fluo-8 calcium influx, capsaicin EC20 potentiation; host cell line not named in the record; control for the full effect not named in the record. potentiation, % at 8.33 µM. 320,000 tested, 0.02% active. AID 540277, 2011; active means potentiation above 80%; inconclusive means 30% to 80%; inactive means below 30%; also: 0% is about no effect
# Target sequence (Q8NER1 whole entry, looked up): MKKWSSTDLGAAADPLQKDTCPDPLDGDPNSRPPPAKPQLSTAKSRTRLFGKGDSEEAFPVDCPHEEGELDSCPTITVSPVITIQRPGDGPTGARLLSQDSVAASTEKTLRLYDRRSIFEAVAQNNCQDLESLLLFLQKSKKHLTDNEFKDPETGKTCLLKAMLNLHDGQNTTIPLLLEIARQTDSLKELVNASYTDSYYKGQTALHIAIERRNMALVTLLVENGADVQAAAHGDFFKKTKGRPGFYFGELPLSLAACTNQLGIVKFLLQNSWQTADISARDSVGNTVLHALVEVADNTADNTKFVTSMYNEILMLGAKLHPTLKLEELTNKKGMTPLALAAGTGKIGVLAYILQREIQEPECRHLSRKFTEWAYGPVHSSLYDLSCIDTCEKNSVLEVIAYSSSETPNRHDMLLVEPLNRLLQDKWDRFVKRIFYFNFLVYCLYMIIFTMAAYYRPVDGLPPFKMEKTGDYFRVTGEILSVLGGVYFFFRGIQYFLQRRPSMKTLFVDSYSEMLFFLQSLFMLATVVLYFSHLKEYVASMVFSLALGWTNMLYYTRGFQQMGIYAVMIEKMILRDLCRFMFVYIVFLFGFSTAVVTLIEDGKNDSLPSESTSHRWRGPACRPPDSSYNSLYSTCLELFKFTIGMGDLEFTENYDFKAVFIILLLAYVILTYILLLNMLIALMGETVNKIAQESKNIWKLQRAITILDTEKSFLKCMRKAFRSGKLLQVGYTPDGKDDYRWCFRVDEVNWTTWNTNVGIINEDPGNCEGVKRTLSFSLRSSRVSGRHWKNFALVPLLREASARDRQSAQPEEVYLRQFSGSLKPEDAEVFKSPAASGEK
#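 Fluo-8 calcium influx in TRPV1-expressing cells, kinetic read (ex 480/em 520 nm). Compound added and read 3 min for agonist activity, followed by capsaicin at EC20 final and 2 min further read for enhancement.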
# The depositor's hits bear a star; ? = inconclusive; nt = not tested or not shown; [ ] = remark or other dose.
SMILES,PINK1 modulator,Six1-Eya2 inh,D2 PAM,D2 agonist,CtBP-E1A inh,Sfp PPTase inh,TRPV1 PAM
Cc1ccc(Cl)cc1NC(=O)CN1C(=O)NC(C)(C2CC2)C1=O (stereo not given),0.2%,4,-2,0.8,1,nt,nt
Cc1nccc(-c2ccc(-n3cnc4ccccc43)cc2)n1,-2.5%,-9,-3,-0.9,-3,9%,0
CC(C)OC(=O)c1cccnc1SCC(=O)N(C)c1ccccc1,?,4,-5,-2.4,8,-4%,9
CCCCn1c(CNC(=O)Cc2ccccc2)nc2ccccc21,1.0%,1,-9,-4.3,1,17%,-14
Cc1cccc(NC(=O)c2cc(S(=O)(=O)N3CCCCC3)ccc2Cl)n1,-2.8%,-1,-2,2.0,4,nt,-2
Cc1ccccc1-c1nc2ccccc2[nH]1,1.3%,8,-2,-1.0,-1,17%,-20
CC(=O)N=c1sc2cc(C)ccc2n1C,nt,4,-4,1.5,4,11%,2
Clc1ccc(OC2CCN(Cc3nc(CC4CC4)no3)CC2)cc1,-0.1%,8,-10,-0.8,21,7%,-2
Cc1cc(C(=O)N2CCC(C)CC2)on1,3.4%,3,-4,1.5,1,3%,-14
COC1CCN(C(=O)CC2C(=O)NCCN2CC(C)(C)C)CC1 (stereo not given),-1.2%,3,-3,-3.0,0,-18%,-4
Cc1ccccc1Oc1ccccc1N,-0.5%,-4,1,0.1,2,4%,27
O=C(OCCCc1cc2ccccc2c(=O)o1)N1CCOCC1,-0.1%,3,5,0.6,4,nt,nt
Cc1cc(C)cc(-c2nnc(SCc3ccc(C(=O)O)cc3)o2)c1,1.4%,1,0,-2.8,-3,5%,-15
COC(=O)c1cscc1NC(C)=O,-1.1%,0,-31,-0.3,7,1%,-7
CS(=O)(=O)c1ccccc1C(=O)Nc1ccc(-c2nc3ccccc3o2)cc1,5.5%,-10,-13,-1.1,nt,2%,2
CCC(=O)n1nc(-c2ccc(Cl)cc2)nc1SC,0.0%,4,-17,-2.7,11,9%,5
CCC1CCc2sc(C(=O)NC3CCN(Cc4ccccc4)CC3)cc2C1 (stereo not given),12%,-13,-35,-2.4,-14,nt,-18
COc1ccc(/C=C/C(=O)Nc2cc(C)nn2-c2nc3ccccc3n2Cc2cccc([N+](=O)[O-])c2)cc1,?,-6,-6,2.3,0,-5%,-18
CCCN1CCC(C(=O)NC(c2ccc(Cl)cc2)c2ccsc2)CC1 (stereo not given),1.8%,-11,-16,-6.9,-15,nt,nt
C=CCNC(=O)c1c(CSc2ccc(Cl)cc2)noc1C(=O)NCCC,1.5%,8,-1,-0.3,nt,nt,nt
Cc1cccc(NS(=O)(=O)c2ccc3[nH]c(=O)cc(C(=O)OC(C)C(=O)Nc4ccc([N+](=O)[O-])cc4)c3c2)c1 (stereo not given),0.7%,-13,-15,-1.7,-1,15%,7
Cc1nnc(NC(=O)C2CCCN2C(=O)Nc2ccccc2)s1 (stereo not given),-3.4%,3,-2,-0.2,0,0%,0
CN(C)CCCN(C(=O)COc1ccc(Cl)cc1)c1nc2c(F)cccc2s1,1.4%,3,-3,-0.9,5,1%,3
CC1C(=O)C(C)C(c2ccc(O)cc2)NC1c1ccc(O)cc1 (stereo not given),0.5%,0,3,-1.0,nt,5%,-3
CC(C)NC(=O)N(C)C[C@H]1Oc2c(NS(=O)(=O)c3ccc(F)cc3)cccc2C(=O)N([C@H](C)CO)C[C@@H]1C,0.0%,-2,-4,-5.2,4,nt,nt
COc1cccc(CNc2nc3cc(-c4ccc(OC)c(OC)c4)sc3c(=O)n2C)c1,?,-12,13,?,-21,nt,nt
O=C(CCS(=O)(=O)c1cc2c(cc1Cl)NC(=O)CO2)NCc1ccc(F)cc1,0.1%,0,4,1.6,2,15%,20
COc1ccc(S(=O)(=O)N2CCCCC2)cc1-n1cnnn1,0.8%,3,-6,-3.7,1,-5%,?
O=C(Cn1c(=O)n(Cc2ccco2)c(=O)c2c3c(sc21)CCCCC3)c1ccccc1,-7.5%[38.3 µM],-12,-8,-2.2,2,56µM*,11
CCOC(=O)C1CCN(C(=O)c2cc3c(ccc4ccccc43)o2)CC1,-0.4%,1,2,-0.5,-1,-19%,-11

# 3 of the entries above in order of their number in D2 PAM, low to high.
mol	Six1-Eya2 inh	D2 PAM	D2 agonist	CtBP-E1A inh	Sfp PPTase inh
CCCN1CCC(C(=O)NC(c2ccc(Cl)cc2)c2ccsc2)CC1 (stereo not given)	-11	-16	-6.9	-15	nt
Cc1nnc(NC(=O)C2CCCN2C(=O)Nc2ccccc2)s1 (stereo not given)	3	-2	-0.2	0	0%
CCOC(=O)C1CCN(C(=O)c2cc3c(ccc4ccccc43)o2)CC1	1	2	-0.5	-1	-19%

# 11 entries already listed, ordered by SMILES length, smallest number first:
SMILES,PINK1 modulator,Six1-Eya2 inh,D2 PAM,D2 agonist,CtBP-E1A inh,Sfp PPTase inh,TRPV1 PAM
CCC(=O)n1nc(-c2ccc(Cl)cc2)nc1SC,0.0%,4,-17,-2.7,11,9%,5
Cc1nnc(NC(=O)C2CCCN2C(=O)Nc2ccccc2)s1 (stereo not given),-3.4%,3,-2,-0.2,0,0%,0
CC1C(=O)C(C)C(c2ccc(O)cc2)NC1c1ccc(O)cc1 (stereo not given),0.5%,0,3,-1.0,nt,5%,-3
CCCN1CCC(C(=O)NC(c2ccc(Cl)cc2)c2ccsc2)CC1 (stereo not given),1.8%,-11,-16,-6.9,-15,nt,nt
CCC1CCc2sc(C(=O)NC3CCN(Cc4ccccc4)CC3)cc2C1 (stereo not given),12%,-13,-35,-2.4,-14,nt,-18
CCOC(=O)C1CCN(C(=O)c2cc3c(ccc4ccccc43)o2)CC1,-0.4%,1,2,-0.5,-1,-19%,-11
CN(C)CCCN(C(=O)COc1ccc(Cl)cc1)c1nc2c(F)cccc2s1,1.4%,3,-3,-0.9,5,1%,3
O=C(CCS(=O)(=O)c1cc2c(cc1Cl)NC(=O)CO2)NCc1ccc(F)cc1,0.1%,0,4,1.6,2,15%,20
COc1ccc(/C=C/C(=O)Nc2cc(C)nn2-c2nc3ccccc3n2Cc2cccc([N+](=O)[O-])c2)cc1,?,-6,-6,2.3,0,-5%,-18
CC(C)NC(=O)N(C)C[C@H]1Oc2c(NS(=O)(=O)c3ccc(F)cc3)cccc2C(=O)N([C@H](C)CO)C[C@@H]1C,0.0%,-2,-4,-5.2,4,nt,nt
Cc1cccc(NS(=O)(=O)c2ccc3[nH]c(=O)cc(C(=O)OC(C)C(=O)Nc4ccc([N+](=O)[O-])cc4)c3c2)c1 (stereo not given),0.7%,-13,-15,-1.7,-1,15%,7

# Following part
SMILES,PINK1 modulator,Six1-Eya2 inh,D2 PAM,D2 agonist,CtBP-E1A inh,Sfp PPTase inh,TRPV1 PAM
COc1ccc(-c2csc(N(Cc3ccco3)C(=O)c3cccs3)n2)cc1,0.3%,?,-16,-7.3,nt,?,-3
CC1(C)CC(NC(=S)Nc2ccc([N+](=O)[O-])cc2)CC(C)(C)N1,1.1%,-5,-14,-3.2,-13,-16%,6
O=C(CCCCCN1C(=O)c2ccccc2C1=O)Nc1ccc(C(=O)O)cc1,-0.6%,0,-3,2.0,nt,3%,-3
CCC(=O)Nc1ccc(C(=O)N/N=C/c2ccccc2[N+](=O)[O-])cc1,8.9%[38.3 µM],-1,2,-0.3,2,-3%,-15
CN(C)S(=O)(=O)c1cccc(COC(=O)c2cnccn2)c1,0.5%,-10,-5,3.7,5,11%,9
COc1ccc(C)cc1NC(=O)CSc1nnnn1C1CCCC1,1.0%,8,-24,-4.3,2,7%,3
CCCN1Cc2cccc(C(=O)NCc3cccs3)c2C1=O,-0.3%,3,4,-3.6,5,20%,-11
COc1cc(/C=C2\SC(=S)N(CC(=O)O)C2=O)ccc1OC(=O)c1ccco1,3.3%,-20,-7,-6.9,-13,-16%,30
CCOc1ccc(/C=C2/SC(=S)N(CCC(=O)Nc3ccc(C(=O)O)cc3)C2=O)cc1,0.5%,-7,-29,-4.4,-1,0%,15
CCCc1cc(=O)[nH]c(SCc2ccc(F)cc2)n1,3.6%,2,5,-3.4,-5,11%,?
Cc1cc(NC(=O)c2ccc(Cl)cc2)c(C(C)C)cc1O,nt,-2,-1,-0.5,-4,23%,3
COc1ccc(C(=O)N2CC3(C)CC2CC(C)(C)C3)cc1OC (stereo not given),-1.7%,-6,-17,-3.0,-1,7%,-5
O=C(CSc1nnc(C2CC2)n1-c1ccccc1)N1CCCC1,3.4%,6,1,-2.3,-1,nt,nt
Cc1nn(CCc2nn[nH]n2)c2nc(-c3ccccc3)cc(C(F)(F)F)c12,3.5%,-6,1,-1.6,-8,10%,24
O=C(COC(=O)c1ccccc1O)NCCC1=CCCCC1,-0.5%,15,-22,-2.8,16,-6%,-19
COc1cc(CCC(=O)NCCc2ccc(F)cc2)cc(OC)c1OC,-3.0%,9,-11,-2.0,-3,nt,nt
CN(/N=C/c1ccc(Br)o1)C1=NS(=O)(=O)c2ccccc21,6.2%,?,-5,11,-16,11%,-11
O=C(Nc1ccc(C(=O)N2CCOCC2)cc1)Nc1cccc2ccccc12,-0.7%,6,-6,-2.1,-5,10%,27
CCC(C)NC(=O)/C=C/c1ccc(S(=O)(=O)NCc2ccco2)cc1 (stereo not given),1.5%,-15,3,4.2,0,2%,-12
COc1ccc([C@H]2C[C@@H](n3cc(-c4ccc(F)cc4)nn3)[C@H](O)CN2Cc2cccs2)cc1,3.2%,-5,-5,-5.7,0,nt,nt
CCN(Cc1ccccc1)C(=O)Cn1c(C(C)O)nc2ccccc21 (stereo not given),3.2%,0,-2,-1.8,5,-4%,?
O=C(Nc1ccc2oc(-c3ccncc3)nc2c1)c1ccc2c(c1)OCCO2,?,-8,-3,-0.4,2,?,3
O=c1[nH]c2ccccc2cc1CN(Cc1ccco1)S(=O)(=O)c1ccc(F)cc1,2.7%,-6,3,-1.9,0,-7%,24
